T cruzi inh: blocks replication of Trypanosoma cruzi; T. cruzi beta-gal in NIH3T3, luminescence, 90 h; inhibition, % (test concentration not listed); AID 1885; actives 1.4% (n = 300,000);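 active = mean inhibition across valid replicates above about 55%, limit read from the data; inconclusive = mean below that limit but half or more replicates reach it; inactive = mean below it, under half of replicates reach it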;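 note: signal also drops with host cell toxicity which is not excluded here; 0% = plate median of DMSO wells and 100% = zero luminescence signal; higher percent means less beta-gal luminescence so fewer parasites; stock transfer was 50 nL into about 50 µL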
Calb FLC: affects C. albicans growth with fluconazole; C. albicans CaCi-2 (fluconazole-resistant clinical isolate) + fluconazole, Alamar Blue growth, 48 h; actives 0.57% (n = 300,000); growth inhibition, % (test concentration not listed);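 active = most replicates above 75%; inconclusive = exactly half above 75%; inactive = most below 75%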;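 note: all wells also contain fluconazole at 8 µg/ml as a sub-toxic cotreatment; 0% = median of DMSO wells and 100% = median of geldanamycin control wells; wells of about 8 µL received 7.5 nL stock; the first replicate is given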
Vif A3G: HIV-1 Vif–A3G interaction blockers – biochemical, TR-FRET, GST-Vif 1-94, biotin-A3G peptide, dose response retest, primary screen (AID 1117319) | TR-FRET GST-Vif / biotin-A3G peptide binding; higher % means a stronger effect; test concentration not given here; strong numbers were not always called active | inhibition, %, or IC50 in µM where a hit was titrated | actives 0.57% (n = 260,000);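 active = above the screen mean plus three standard deviations and confirmed in dose response; inconclusive = results disagree or hit not tested in dose response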;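 note: Vif residues 1-94 fused to GST binding biotinylated APOBEC3G peptide 110-148; 0% = full assay without inhibitor and 100% = GST in place of GST-Vif; retest series ran down from 100 µM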
RanGTP-Impb inh: inhibitors of RanGTP-importin-beta interaction, primary screen, biochemical, FRET, CFP-Ran, YFP-importin-beta, homogeneous. cell-free CFP-Ran/YFP-importin-beta FRET ratio. inhibition, % (test concentration not listed). actives 1.1% (n = 300,000);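 active = most replicates above 15%; inconclusive = exactly half above 15%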;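 note: 0% = DMSO wells and 100% = Ran loaded with GDP instead of GTP; wells of about 40 µL received 100 nL stock; the first replicate is given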
Beta cell apopt: blocks beta cell apoptosis. INS-1E cytokine-induced death, ATP luminescence, 48 h; percent of positive-control rescue, neutral wells zero. protection from apoptosis, % (test concentration not listed). actives 0.8% (n = 300,000). AID 435005;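 active = all replicates at 75% or more, or half of them and the mean; inconclusive = half reach 75% but not the mean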;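 note: 0% = cytokine-treated negative control wells and 100% = positive control rescue; higher means more ATP so stronger rescue from cytokine killing; wells of about 40 µL received 100 nL stock; the first replicate is given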
Bfl-1 A1 inh: inhibitors of the anti-apoptotic protein A1, read as caspase activation | actives 0.066% (n = 330,000) | AID 2462 | MEF A1-2A-BIM cells, Caspase-Glo 3/7 luminescence, 3 h; percent of clofoctol response, vehicle zero | caspase activation, % (no concentration beside the values);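 active = over half of replicate activation scores above 10%, or exactly half above 10 with the replicate mean above 10; inconclusive = replicate mean below 10 yet half the replicates above 10; inactive = over half of replicates below 10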;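 note: wells of about 30 µL received 50 nL stock; many hits fall short of the cut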
Ecoli rRNA inh: inhibitors of bacterial rRNA selective over humanized ribosomes | E. coli WT GFP vs humanized-ribosome RFP mutants, fluorescence, 24 h; active compounds read low; DMSO median 0, no signal -100 | GFP signal change (wild-type ribosome), % (test concentration not listed) | actives 1.6% (n = 350,000) | AID 720706;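 active = significant combined selectivity score with lowered wild-type GFP, culture density cut under 30%, mutant RFP and density less affected; inactive = any of these conditions unmet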; note: one replicate is shown; some compounds called inactive have numbers as strong as hits
MLL AF4-AF9 inh: MLL-AF4/AF9 protein interaction inhibition; P42568; AlphaScreen, biotin-AF4 peptide binding to FLAG-AF9; inhibition, % at 10 µM; actives 0.47% (n = 350,000); AID 651704;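 active = every replicate reaching a set inhibition limit, whatever the replicate mean, cut at about 25% in these data; inconclusive = mean inhibition reaches that limit but some replicates miss it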;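 note: 0% = plate neutral control median and 100% = total signal loss; the record names both 10 and 1 µM as test concentration; the first replicate is given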
Target sequence (P42568 whole entry, looked up): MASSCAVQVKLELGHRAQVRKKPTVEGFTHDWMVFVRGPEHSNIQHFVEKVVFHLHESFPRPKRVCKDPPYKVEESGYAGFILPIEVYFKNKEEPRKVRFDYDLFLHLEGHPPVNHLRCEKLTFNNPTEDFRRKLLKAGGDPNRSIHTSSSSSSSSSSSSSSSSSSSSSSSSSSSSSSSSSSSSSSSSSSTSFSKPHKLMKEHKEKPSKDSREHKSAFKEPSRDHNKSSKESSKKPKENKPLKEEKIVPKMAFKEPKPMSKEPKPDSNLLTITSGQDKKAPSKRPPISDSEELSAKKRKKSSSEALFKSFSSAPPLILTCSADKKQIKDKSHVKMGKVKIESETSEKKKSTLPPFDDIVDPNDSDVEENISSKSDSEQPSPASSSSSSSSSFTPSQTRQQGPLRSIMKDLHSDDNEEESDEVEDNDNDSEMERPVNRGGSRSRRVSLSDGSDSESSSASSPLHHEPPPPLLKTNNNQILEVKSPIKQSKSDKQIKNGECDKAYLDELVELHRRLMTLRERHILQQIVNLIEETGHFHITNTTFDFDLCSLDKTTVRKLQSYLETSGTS
Ecoli rRNA inh OD600: further read-out of Ecoli rRNA inh, marked with its call; OD600 change, %; measured here: OD600 growth;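 optical density of the mix in the first replicate; 0 = DMSO median and -100 = no signal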
Ecoli rRNA inh RFP: also measured in Ecoli rRNA inh; calls as there; RFP signal change, %; measured here: RFP humanized mutant strains;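 first replicate; 0 = DMSO median and -100 = no signal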
* marks the source's active call; other numbers are inactive results; ? = inconclusive; · = no result given. An excerpt; rates above refer to the full screens.

SMILES	T cruzi inh	Calb FLC	Vif A3G	RanGTP-Impb inh	Beta cell apopt	Bfl-1 A1 inh	Ecoli rRNA inh	Ecoli rRNA inh OD600	Ecoli rRNA inh RFP	MLL AF4-AF9 inh
Cc1ccc(-c2nnc(N(C)C(=O)c3ccncc3)s2)cn1	-13	-3	24%	-3.1	3	-1.0	·	·	·	·
Cc1ccc2c(c1)N(CC(=O)NCCCN1CCCCC1C)C(=O)c1cccnc1O2 (stereo unspecified)	4	-5	-8%	0.0	-3	-1.2	16	15	0.4	0.7
O=C(CCCN1C(=O)/C(=C/c2ccco2)SC1=S)Nc1cccc(C(=O)O)c1	3	12	·	1.7	-16	-0.5	1	8	15	0.3
O=C(CCc1nnc(Cc2ccc3c(c2)OCO3)o1)N(CC1CCC1)CC1CCCO1 (stereo unspecified)	3	-17	6%	-3.9	-5	0.0	2	-1	0.2	-1.0
Clc1ccc(-c2nc3n(n2)Cc2ccccc2-3)cc1	8	-5	?	0.8	10	-16	·	·	·	·
COc1ccc(S(=O)(=O)N(CC(N)=O)C2CCCCC2)cc1Cl	-2	-3	6%	6.2	1	-0.1	·	·	·	·
CCc1nnc(NS(=O)(=O)c2ccc(N/C=C\C(=O)c3ccc(C)cc3)cc2)s1	1	-12	-1%	2.2	4	0.3	·	·	·	·
CN(C)CCNC(=O)Nc1ccc([N+](=O)[O-])cc1	-2	20	-3%	-1.7	0	-0.3	11	5	-3.3	-0.4
CC(=O)c1c(N2CCCCC2)nc(=S)n(Cc2ccccc2)c1C	29	-8	0%	4.0	4	0.0	·	·	·	·
O=S(=O)(c1cccc(Cn2nnc(-c3ccccc3)n2)c1)N1CCOCC1	·	·	·	·	-4	0.0	-10	-15	-1.8	-1.0
CN(C(=O)Cn1c(=O)oc2ccccc21)C1CCCCC1	·	·	11%	·	0	0.7	11	8	-0.1	-0.8
Cc1ccc(-n2nnnc2SCC(=O)Nc2ccc(N3CCN(C)CC3)cc2)c(C)c1	15	1	-3%	0.1	-3	2.1	-1	2	-0.4	7.6
CCc1cc2c(=O)oc(-c3ccc(F)cc3)nc2s1	-14	12	·	4.1	1	-0.7	-6	-2	-1.4	2.1
Cn1c(=O)[nH]c(=O)c2c1nc(CN1CCOCC1)n2Cc1ccc(F)cc1	·	·	0%	·	-1	0.8	5	12	2.0	-0.8
Cc1cc(-c2nnc(SCC(=O)Nc3ccccc3F)n2N)n[nH]1	-4	5	·	2.8	-6	1.3	3	10	-1.5	-0.2
OCCC1CN(Cc2cnc(N3CCCC3)s2)CCN1Cc1ccccc1 (stereo unspecified)	23	-21	·	-1.2	2	0.7	10	8	11	1.4
Cc1cc(NC(=O)Cc2ccccc2C)no1	-5	-7	·	0.8	4	0.6	18	14	-1.0	2.7
O=C(Cc1ccc2c(c1)OCCO2)N/N=C/c1ccco1	·	·	·	·	1	0.5	7	0	1.1	-0.1
COc1ccc(C(=O)N(C)CC(O)c2ccccc2)cc1OC1CCN(C(C)=O)CC1 (stereo unspecified)	-12	0	0%	2.8	-3	0.3	4	-5	6.7	-8.4
COc1cc2c(cc1OC)CN(C(=O)c1cc(S(=O)(=O)N3CCOCC3)ccc1Cl)CC2	1	-23	19%	-0.1	2	-0.8	·	·	·	·
O=C(NCC(O)c1ccccc1)Nc1cccs1 (stereo unspecified)	-1	-10	-9%	-2.7	-5	-0.2	4	7	-1.5	-0.5
COc1ccc(C2=NN(C(=O)CCC(=O)O)C(c3ccc(OC)c(OC)c3)C2)cc1 (stereo unspecified)	-8	-9	·	-0.3	-1	0.5	16	10	4.0	-1.3
Cc1cccc(NC(=O)CSCc2cc(=O)n3nc(C4CC4)sc3n2)c1	28	-1	·	0.6	-2	1.9	9	-1	3.0	-0.1
CC(=O)c1ccc(N2CCN(C(=O)COc3ccc4c(c3)CCC4)CC2)cc1	2	10	·	2.6	1	0.9	7	15	3.8	-1.4
COc1ccc(NC(=S)N2CCN(C(=O)c3ccccc3)CC2)cc1	-12	0	·	-0.7	2	0.8	2	0	-5.3	-2.3
Cc1ccc(C)c(NC(=O)CN(C)S(=O)(=O)c2cccc3cccnc23)c1	-10	3	0%	0.8	7	0.8	0	-5	-6.3	3.0
CN(C)/C(CN1CCOCC1)=C1\N=C(c2ccccc2)OC1=O	-11	-1	-1%	0.5	1	-0.4	5	-1	-8.0	11
CCCCN(CCCC)Cc1ccc(C(=O)NN)o1	7	-11	6%	-0.3	5	0.6	19	16	-1.0	1.0
COc1ccc(NC(=O)C(=O)NCC(c2ccco2)N2CCc3ccccc3C2)cc1 (stereo unspecified)	9	9	1%	-4.0	1	-0.1	1	3	0.1	-0.4
CCOC(=O)c1ccccc1-c1csc(N)n1	2	-2	-1%	-2.2	-4	-1.0	11	3	1.0	0.8
COc1ccccc1OCCn1cc(/C=C(\C#N)C(=O)NCc2ccco2)c2ccccc21	3	-8	-1%	2.5	-10	1.5	·	·	·	·
O=C(NCCNc1nccc(C(F)(F)F)n1)c1cccc(C(F)(F)F)c1	-6	23	28%	3.0	·	1.1	0	-12	3.8	-3.4
CC(C)(C)OC(=O)NC(Cc1ccccc1)C(=O)O (stereo unspecified)	-14	3	·	1.2	-2	0.4	5	3	-6.5	0.4
COc1ccc(OC)c(C(=O)c2coc3ccc(OC)cc23)c1	2	-8	13%	-1.4	0	-0.9	·	·	·	·
CCOC(=O)c1cc(-c2ccc3c(c2)OCCO3)n[nH]1	-4	-15	-5%	-2.2	-1	-4.5	-32*	-16*	-6.2*	-1.0
O=C(CNc1cccc2ccccc12)N/N=C/c1ccc([N+](=O)[O-])o1	83*	37	28%	3.2	118*	0.4	-56	-77	-22	2.0
COc1cccc(Oc2cn[nH]c2-c2ccc(OCC(=O)NN)cc2O)c1	-8	-11	·	2.1	0	0.0	-7	-6	1.7	-6.7
CCCN1C2CCCC1CC(NC(=O)NC1CCCCC1)C2 (stereo unspecified)	-8	10	7%	1.6	-1	0.2	·	·	·	·
NNC(=O)c1ccc(Cn2cccn2)o1	-12	1	4%	-1.5	-1	0.6	10	-4	-0.8	·
CCOC(=O)c1c(C)n(C)c2ccc(O)c(S(=O)(=O)c3ccccc3)c12	-8	6	5%	5.1	-7	0.1	·	·	·	5.5

Reformatted with values under each structure: two of the compounds above
Each structure is followed by: T cruzi inh | Calb FLC | Vif A3G | RanGTP-Impb inh | Beta cell apopt | Bfl-1 A1 inh | Ecoli rRNA inh | Ecoli rRNA inh OD600 | Ecoli rRNA inh RFP | MLL AF4-AF9 inh
> O=C(NCCNc1nccc(C(F)(F)F)n1)c1cccc(C(F)(F)F)c1
  -6 | 23 | 28% | 3.0 | · | 1.1 | 0 | -12 | 3.8 | -3.4
> CC(C)(C)OC(=O)NC(Cc1ccccc1)C(=O)O (stereo unspecified)
  -14 | 3 | · | 1.2 | -2 | 0.4 | 5 | 3 | -6.5 | 0.4

Next part
SMILES	T cruzi inh	Calb FLC	Vif A3G	RanGTP-Impb inh	Beta cell apopt	Bfl-1 A1 inh	Ecoli rRNA inh	Ecoli rRNA inh OD600	Ecoli rRNA inh RFP	MLL AF4-AF9 inh
CN1C(C(=O)Nc2cccc(O)c2)=CC(c2cccs2)=NS1(=O)=O	-2	-4	·	?	-15	·	-11	-29	-13	27*
O=C(COc1ccccc1)Nc1ccc(-c2nnc(-c3ccco3)o2)cc1	-15	4	-2%	4.3	-6	-0.9	·	·	·	·
Cc1ccc(C(=O)NCc2ccco2)cc1Br	-9	25	0%	-1.9	0	0.0	·	·	·	·
CCOC(=O)COc1cccc2c(=O)n(CC(N)=O)ccc12	-9	-3	0%	1.4	-6	-0.5	5	2	-3.3	-15
Cc1ccc(NC(=O)CSc2nc3ccccc3nc2N2CCOCC2)c(C)c1	2	-5	·	?	-2	-0.1	4	-3	-2.6	-1.6
CC1=CC2=NC(=O)CC(C)(C(=O)N(CC(=O)NC(C)(C)C)Cc3cccs3)N2C=C1 (stereo unspecified)	-8	-12	3%	1.8	-3	-0.4	1	-5	-5.3	-23
Cc1ccc(C2CCN(C(=S)NC(C)(C)C)C2)cc1 (stereo unspecified)	-10	4	10%	-3.1	-6	0.7	-7	-12	-3.3	-9.9
O=C(CCC(=O)N/N=C/c1ccco1)N/N=C/c1ccco1	-12	-3	5%	0.7	-3	1.3	10	12	1.1	-16
CC1CC(=O)N(CC(=O)Nc2ccc(Br)cc2)c2ccccc2S1(=O)=O (stereo unspecified)	15	18	·	-2.9	-2	-0.7	-5	-10	-2.2	1.6
CC(Nc1nc(-c2ccc(F)cc2)cs1)c1nc2cc(Cl)c(Cl)cc2n1CCOCCO (stereo unspecified)	8	-5	·	4.2	7	-1.0	-21	-27	9.1	-11
c1ccc(-c2nc(CSc3nnnn3-c3ccccc3)cs2)cc1	15	-1	12%	4.8	8	0.1	·	·	·	·
O=C1CCN(S(=O)(=O)c2ccccc2)N1	-3	-6	?	-5.2	-2	0.5	·	·	·	·
Cc1cc(C(C)(C)C)oc1C(=O)N(CC(=O)NC1CCCC1)Cc1ccc(F)cc1	10	-5	0%	?	-6	0.8	·	·	·	·
COc1ccc(CN=C(C#N)C2=C(O)c3ccccc3C2=O)cc1	0	3	-1%	-3.9	-3	-0.5	·	·	·	-2.3
COc1cc(NC(=O)C2CC(c3ccc(Cl)cc3)=NO2)cc(OC)c1OC (stereo unspecified)	14	42	2%	-1.2	-3	1.2	3	1	1.6	-1.4
Clc1ccc(-n2c(SC/C=C/c3ccccc3)nnc2-c2cccnc2)cc1	14	29	29%	2.4	-9	-0.5	·	·	·	·
CCN(C(=O)COC(=O)c1cccc(S(=O)(=O)N2CCOCC2)c1)C1CCS(=O)(=O)C1 (stereo unspecified)	-7	-2	-5%	-1.0	·	1.6	20	10	-0.5	-0.2
Cc1ccc(-c2c(C)sc(NC(=O)C3C4CCC(O4)C3C(=O)O)c2C(=O)OC(C)C)cc1 (stereo unspecified)	-14	-15	-3%	-1.0	-6	1.7	·	·	·	·
Cc1c(C(=O)NCc2nnc(-c3ccccc3)o2)oc2c(F)cccc12	0	2	·	-0.4	-10	0.7	0	-1	0.3	-2.2
CC(=O)N1c2c(cc(Br)cc2S(=O)(=O)NCc2ccc(C)cc2)CC1C (stereo unspecified)	0	1	·	-2.6	-2	0.0	-4	-12	5.8	0.9
Cc1ccc(NNC(=O)C2CCC2)cc1C	10	-18	-5%	2.9	8	0.7	·	·	·	-2.2
COc1ccccc1NC(=O)C(C)OC(=O)/C=C/c1ccc2ccccc2n1 (stereo unspecified)	-21	15	-4%	-2.2	-6	0.1	3	-3	0.6	-4.4
c1cncc(-c2ccc3ncnc(NCc4ccc5c(c4)OCO5)c3c2)c1	·	·	·	·	-2	0.5	-12	-14	-5.5	-1.6
CC(=O)c1sc(NC(=O)C(C)Oc2ccc3c(C)cc(=O)oc3c2)nc1C (stereo unspecified)	-10	37	·	-1.7	9	-0.3	-5	-16	6.1	0.7

Compound activity from PubChem BioAssay.
